# Bioassay records (PubChem BioAssay)
# Glioma ERSR ind: induces the endoplasmic reticulum stress response in human glioma cells; 0.02% of 420,000 active; U87-MG GRP78 promoter luciferase reporter, 16 h; Potency, µM, for the others: at the highest dose activation, most hits filed as activators; AID 602332; also: potency is read from the fitted curve at half-maximal effect; series mostly up to about 76 µM; % of control where 0% means no effect; nearly all actives have a fitted effect of over 35% in size
#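 Stably transfected U87-MG human glioma cells carrying a GRP78-based luminescent sensor were seeded at 1000 cells/well, pin-dosed with compounds and incubated 16 h. Luciferase reagent was then added, and end-point luminescence was read after 10 min at room temperature.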
# TrxR1 substrate: rat thioredoxin reductase 1 substrate activity | O89049 | purified TrxR1 substrate turnover, NADPH consumption readout | Potency, µM (doses to about 114 µM), inactives show top-dose activity change, negative = substrate turnover | 0.01% of 390,000 active | AID 588456; also: potency is read from the fitted curve at half-maximal effect; % is scaled to controls: 0 for no effect and ±100 for the full control effect; nearly all actives have a fitted effect of over 50% in size
# Target sequence (O89049 whole entry, looked up): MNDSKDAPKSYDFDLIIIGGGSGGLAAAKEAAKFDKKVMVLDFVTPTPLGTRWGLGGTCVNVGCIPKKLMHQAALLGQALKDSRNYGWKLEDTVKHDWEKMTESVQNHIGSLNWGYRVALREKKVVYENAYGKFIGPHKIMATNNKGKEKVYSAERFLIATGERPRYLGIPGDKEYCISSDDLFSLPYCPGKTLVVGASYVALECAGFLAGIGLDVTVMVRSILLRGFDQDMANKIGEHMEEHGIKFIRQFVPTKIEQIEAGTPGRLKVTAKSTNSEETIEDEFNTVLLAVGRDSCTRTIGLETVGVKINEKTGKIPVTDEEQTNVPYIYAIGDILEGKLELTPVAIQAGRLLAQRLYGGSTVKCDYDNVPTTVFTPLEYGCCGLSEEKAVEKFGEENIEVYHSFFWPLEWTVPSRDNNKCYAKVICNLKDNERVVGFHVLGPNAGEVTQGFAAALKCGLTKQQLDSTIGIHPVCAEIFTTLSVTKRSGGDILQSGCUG
#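 Rat TrxR1, dispensed at 90 nM, was prereduced with 400 uM NADPH (final) for 5 min at ~22 deg C, then incubated with compound 15 min before 400 uM selenite. A first-read NADPH fluorescence drop versus no-compound background flagged substrates.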
# USP1 inh: USP1/UAF1 (human) deubiquitinase inhibition; recombinant USP1/UAF1, Ub-Rhodamine cleavage fluorescence; Potency, µM (series often up to 57.1 µM), inactives show top-dose activity change, negative = inhibition, usual class: inhibitors; O94782; 0.23% of 390,000 active; also: potency is read from the fitted curve at half-maximal effect; % is scaled to controls: 0 for no effect and ±100 for the full control effect; nearly all actives have a fitted effect of over 60% in size; inactives centre near -12
#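 USP1/UAF1 complex at 1 nM was preincubated with compound for 15 min at room temperature, then Ub-Rho substrate (150nM final) was added. Fluorescence (480/540 nm) was read kinetically, 6 reads every 60 seconds.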
# PI4K2A block: inhibitors of human PI4K2A; AID 1346378; 0.13% of 420,000 active; activity change, negative = inhibition, % at 76.9 µM; Q9BTU6; purified PI4K2A, ADP-Glo luminescence, 1 h; hits give low values; in the data active = activity change below about -50%; inconclusive = mostly about -30% to -49%;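 also: -100% = wells without enzyme as full effect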
#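 In this quantitative HTS, ADP production by PI4K2A was quantified luminescently after 1 h at ambient temperature; 100 microM adenosine served as plate-quality control.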
# LDHA block: LDHA (human) enzyme inhibition; purified LDHA, NADH/diaphorase-resazurin fluorescence; hits give low values; activity change, % (values are at about 110 or 230 µM); 0.15% of 480,000 active; AID 1347041; in the data active = activity change below about -30%; inconclusive = mostly about -25% to -30%;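 also: plate controls were DMSO wells for no effect and wells without enzyme for full effect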
#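 Resorufin fluorescence (ex540/em590), read at 0 and 20 min after diaphorase/resazurin addition, reports the NADH left after a 5 min room-temperature reaction of 2 nM human LDH5 with 0.06 mM NADH and 0.2 mM pyruvate.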
# Vif-APOBEC3G blk: Vif-A3G binding inhibition. Q9HC16. HeLa A3G-eYFP + Vif (tagged APOBEC3G with the HIV-1 protein that degrades it), YFP fluorescence, overnight. Potency, µM (highest dose often 46.1 µM), without a hit: at the highest dose activity, negative = active, most hits filed as inhibitors. 0.076% of 410,000 active. AID 602310;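 also: potency is read from the fitted curve at half-maximal effect; % is scaled to controls: 0 for no effect and ±100 for the full control effect; nearly all actives have a fitted effect of over 60% in size; hits raise eYFP signal because A3G escapes Vif-driven loss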
# Target sequence (Q9HC16 whole entry, looked up): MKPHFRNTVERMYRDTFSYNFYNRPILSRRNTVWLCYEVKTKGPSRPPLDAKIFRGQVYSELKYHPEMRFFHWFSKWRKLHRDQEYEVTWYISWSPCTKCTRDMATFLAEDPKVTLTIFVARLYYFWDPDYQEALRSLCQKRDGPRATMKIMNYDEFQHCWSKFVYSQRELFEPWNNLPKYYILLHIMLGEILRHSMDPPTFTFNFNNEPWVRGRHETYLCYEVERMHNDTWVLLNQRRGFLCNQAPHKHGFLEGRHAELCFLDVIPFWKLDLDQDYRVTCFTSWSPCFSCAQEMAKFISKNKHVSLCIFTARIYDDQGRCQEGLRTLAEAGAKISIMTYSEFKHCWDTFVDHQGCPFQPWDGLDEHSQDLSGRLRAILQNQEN
#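 Read-out is eYFP fluorescence (Ex 488/Em 500-530) from Vif-expressing HeLa A3G-eYFP cells; more signal means A3G escaped Vif-mediated degradation. Cells plated overnight, compound pinned in, incubated overnight at 37 deg C.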
# Vif-A3F inh: Vif-A3F binding inhibition | AID 602313 | Potency, µM (highest dose often 46.1 µM), for the others: at the highest dose activity, negative = active | HeLa A3F-eYFP + Vif (tagged APOBEC3F with the HIV-1 protein that degrades it), YFP fluorescence increase | 0.2% of 390,000 active; also: potency is read from the fitted curve at half-maximal effect; % of control where 0% means no effect; nearly all actives have a fitted effect of over 65% in size
#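 HeLa cells stably expressing A3F-eYFP plus Vif, plated and incubated overnight at 37 deg C, then exposed to compounds overnight at 37 deg C. Blocked degradation read as raised yellow fluorescence (Ex 488/Em 500-530).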
# IDH1 R132H inh: blocks human mutant IDH1 R132H enzyme | O75874 | IDH1-R132H enzyme, NADPH consumption, diaphorase/resazurin fluorescence | Potency, µM (top dose mostly 76.6 µM), inactives show at the highest dose activity change, negative = inhibition, hits mostly inhibitors | 0.093% of 390,000 active | AID 602179; also: potency is read from the fitted curve at half-maximal effect; % is scaled to controls: 0 for no effect and ±100 for the full control effect; nearly all actives have a fitted effect of over 65% in size
#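 IDH1-R132H (0.5 ug/mL dispensed) in pH 7.5 Tris buffer was preincubated 30 min with compound, then given a substrate mix of 0.016 mM NADPH and 2 mM alpha-KG for 80 min at room temperature; remaining NADPH was read by diaphorase/resazurin fluorescence.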
# Numbers without * were called inactive; ? = inconclusive; / = not tested or not shown; & = joins results of further samples; [ ] = dose if it differs, or a comment. Unless noted, calls follow the shape of the dose curve; as a rule, active = well fitted curve in the direction sought with a large enough effect; inconclusive = small, poorly fitted or top-dose-only effect, or another doubt; inactive = no such curve, though single readings can be large; an effect the other way counts as inactive or inconclusive.
SMILES,Glioma ERSR ind,TrxR1 substrate,USP1 inh,PI4K2A block,LDHA block,Vif-APOBEC3G blk,Vif-A3F inh,IDH1 R132H inh
COCCn1c(=NC(=O)CSCC(=O)Nc2cc(C)on2)sc2cc(C(=O)OC)ccc21,1%,2%,-18%,2,1,0%,-7%,-1%
O=C(Nc1cccc(C(F)(F)F)c1)NC1CCN(S(=O)(=O)c2ccc(F)cc2)CC1,-3%,13%[57.1 µM],-23%,-2,-2,-4%,-5%,3%
CCOC(=O)c1cc(C(=O)OCC)c(=O)[nH]c1N1CCCC1,-1%,-10%,-11%,-1,-1,0%,-4%,1%
Cc1nc2c3c(sc2c(=O)[nH]1)NC(=O)CC3c1ccccc1Cl (stereo unspecified),1%,-6%,-15%,4,-5,4%,-1%,-7%
COC(=O)c1sccc1NC(=O)C1CC=CCC1C(=O)O (stereo unspecified),-5%,5%,-10%,3,-2,1%,2%,3%
Fc1ccc(CNc2nc3c(-c4ccc(F)cc4)nnn3c3ccccc23)cc1,1%,11%,-22%,-3,-2,0%,-6%,12%
O=C(NC1CC(=O)N(c2ccccc2)C1)N1CCN(C(=O)c2ccco2)CC1 (stereo unspecified),-3%,-3%,-17%,3,3,0%,2%,10%
CC1CCN(CCCn2c(=S)[nH]c3ccc(N4CCOCC4)cc3c2=O)CC1,-4%,-1%[57.1 µM],-14%,2,3,4%,-7%,2%
COCCn1c(=NC(=O)CSCC(=O)N2CCOCC2)sc2cc(C)ccc21,-3%,-8%,-18%,-1,2,1%,6%,0%
O=C(CSc1ncnc2ccccc12)Nc1cccc(S(=O)(=O)N2CCOCC2)c1,-5%,5%[57.1 µM],-9%,1,-2,-1%,1%,3%
CCC(Sc1nnc2c3ccccc3n(C)c2n1)C(=O)Nc1nnc(C(C)C)s1 (stereo unspecified),-4%,0%,-17%,9,4,-1%,0%,10%
COc1ccc(OC)c(NC(=O)CSc2nnc(N)s2)c1,-7%,-3%,-12%,10,-1,2%,4%,2%

# Retrieved one by one from above (four):
SMILES,Glioma ERSR ind,TrxR1 substrate,USP1 inh,PI4K2A block,LDHA block,Vif-APOBEC3G blk,Vif-A3F inh,IDH1 R132H inh
COc1ccc(OC)c(NC(=O)CSc2nnc(N)s2)c1,-7%,-3%,-12%,10,-1,2%,4%,2%
CCC(Sc1nnc2c3ccccc3n(C)c2n1)C(=O)Nc1nnc(C(C)C)s1 (stereo unspecified),-4%,0%,-17%,9,4,-1%,0%,10%
COCCn1c(=NC(=O)CSCC(=O)Nc2cc(C)on2)sc2cc(C(=O)OC)ccc21,1%,2%,-18%,2,1,0%,-7%,-1%
O=C(NC1CC(=O)N(c2ccccc2)C1)N1CCN(C(=O)c2ccco2)CC1 (stereo unspecified),-3%,-3%,-17%,3,3,0%,2%,10%

# Following part
SMILES,Glioma ERSR ind,TrxR1 substrate,USP1 inh,PI4K2A block,LDHA block,Vif-APOBEC3G blk,Vif-A3F inh,IDH1 R132H inh
CCCCOc1ccc(/C(O)=C2/C(=O)C(=O)N(Cc3cccnc3)C2c2ccncc2)c(C)c1 (stereo unspecified),-4%,-13%,-16%,0,-2,-6%,-5%,1%
Cc1ccc(Cc2nc3ccccc3nc2SCC(=O)NCc2ccccc2Cl)cc1,0%,-8%[57.1 µM],-23%,1,-5,1%,-3%,-4%
O=C(Cn1ccn(-c2ccc(F)cc2)c(=O)c1=O)NCCc1ccccc1,-3%,0%,22%,0,11&5,-2%,2%,-13%
Cc1ccccc1-c1nc(SCC(=O)NCC2CCCO2)c2c(=O)n(C)c(=O)n(C)c2n1 (stereo unspecified),/,6%[57.1 µM],?,-2,-7,/,/,/
O=C(OC1CCOC1=O)c1cc(-c2ccc(Br)cc2)nc2ccccc12 (stereo unspecified),-1%,13%,-8%,-3,-6,-9%,-17%,7%
C=CCN1C(=O)/C(=C2/Sc3ccc(OC)cc3N2C)SC1=Nc1cccc(O)c1,-5%,0%[57.1 µM],-8%,1,0,11µM*,11µM*,-5%
COc1ccc(-c2cc(C(=O)NCCc3ccccc3)c3c(-c4ccccc4)[nH]nc3n2)cc1OC,-1%,71%[activator],-4%,1,3,-4%,4%,20%
CC(C)c1nc(N2CCN(C(=O)c3ccco3)CC2)c2c3c(sc2n1)CCCC3,-2%,25%,6%,-1,1,1%,-3%,-17%
CCc1ccc(CNC(=O)C2CCN(c3nc4ccccc4nc3C(F)(F)F)CC2)cc1,0%,-1%[57.1 µM],?,3,-9,3%,0%,-4%
COc1cccc(N/C(SCc2cccc([N+](=O)[O-])c2)=C(/C#N)C(=O)NCc2cccs2)c1,-5%,-7%,-20%,-1,3,-2%,20%,10%
c1coc(Cn2nnnc2CN2CCN(C3CCCCC3)CC2)c1,-4%,-1%,-12%,-1,-3,-1%,0%,5%
O=C(c1ccccc1F)N1CCC(N2CCCCCC2)CC1,-3%,-4%,-20%,6,-8,0%,3%,4%
CCc1nc(SCC(=O)NNC(=O)c2ccc(C)cc2)c2ccccc2n1,-7%,-4%,-17%,1,-2,0%,7%,-1%
O=C(c1ccccc1C(F)(F)F)N1CCN(S(=O)(=O)c2ccccc2)CC1,-7%,-3%,-1%,-2,6,1%,-2%,0%
Cc1nc(N2CCN(Cc3nc4ccccc4[nH]3)CC2)c2oc3ccccc3c2n1,-5%,-2%,?,0,-7,2%,-5%,8%
Cc1nc2ccc(Br)cc2c(-c2ccccc2)c1C(=O)O,-1%,-1%,-4%,-10,-5,-9%,2%,-4%
COCCN(CCOC)C(=O)c1cc2c(=O)n3ccccc3nc2s1,8%,529%[activator],1%,-3,-1,0%,-20%,5%
CC(=O)c1cn(CC(=O)Nc2ccc(C)c(C)c2)c2ccccc12,2%,0%,-21%,10,-4,-4%,7%,-2%
O=C(C1=C(O)C(=O)N(CCN2CCOCC2)C1c1cccc(Br)c1)c1cc2ccccc2o1 (stereo unspecified),-4%,-9%,-17%,-8,-2,-12%,3%,-4%
CC(C)c1ccc(OCC(=O)NC(=S)Nc2ccc3c4c(cccc24)CC3)cc1,1%,-5%,-9%,3,-7,1%,-19%,5%
COc1ccc(CNC(=O)CSc2nc3ccccc3nc2Cc2ccccc2)cc1,-3%,-1%[57.1 µM],-6%,4,-6,2%,4%,10%
CCCOc1ccc(C(=O)Nc2ccc(NC(=O)c3ccccc3)c(Br)c2)cc1,0%,14%,?,0,-12,7%,-18%,14%
COc1cc([N+](=O)[O-])cc2sc(NC(=O)C3CC3)nc12,-4%,-2%[57.1 µM],-6%,1,-4,-1%,0%,-3%
CC(C)Cc1c(O)nc(SCCN2CCOCC2)[nH]c1=O,-3%,4%,-16%,3,-1,2%,-8%,4%
Cc1ccc(C(=O)C2=C(O)C(=O)N(c3ncccn3)C2c2ccccc2F)o1 (stereo unspecified),-4%,5%,-21%,1,5,3%,-4%,2%
Cc1ccc2nc(NCc3ccccc3Cl)c3nnnn3c2c1,-1%,23%,-23%,3,-16,0%,?,-4%
O=C(/C=C/c1ccccc1)NC(=S)Nc1ccc2c3c(cccc13)CC2,-6%,9%[57.1 µM],-12%,9,-4,0%,-8%,4%
O=C(CSc1nc2ccccc2nc1Cc1ccc(Cl)cc1)N1CCN(c2ccccc2F)CC1,-4%,-3%[57.1 µM],-7%,1,15,-5%,6%,10%
CSc1nc(Oc2ccccc2)c2sccc2n1,1%,-6%,-18%,3,0,-1%,0%,4%
CC1CCN(C(=O)c2cc3c(=O)n4ccccc4nc3s2)CC1,1%,160%[activator],-11%,-3,-3,-10%,-4%,-1%
Cc1nnc(NC(=O)CSc2ccccc2N)s1,1%,-6%,-2%,2,-8,1%,2%,7%
COC(=O)COc1ccc2oc(-c3ccc(OC)cc3)cc(=O)c2c1,/,7%,-25%,1,-5,/,/,/
COc1ccc(CCn2c(=S)[nH]c3ccc(N4CCOCC4)cc3c2=O)cc1OC,-2%,9%[57.1 µM],-7%,6,3,-3%,0%,8%
CCc1nc(N2CCN(C(=O)c3ccco3)CC2)c2c3c(sc2n1)CCCC3,-3%,11%[57.1 µM],-24%,4,1,0%,5%,-5%
Cc1cc(NC(=O)CSc2nc3c(C)cccc3cc2C#N)no1,-4%,9%[0.0914 µM],2%,3,-3,?,11µM*,-8%
Cc1cccc(CNC(=O)c2ccc(Cn3c(=O)c4cccn4c4cccnc43)cc2)c1,-4%,17%,5%,-4,-10,0%,-27%,10%
Cc1ccc(C)c(S(=O)(=O)c2nnn3c2nc(Nc2ccc(C)c(C)c2)c2sccc23)c1,-3%,10%,?,1,-6,3%,0%,1%
CC(=O)c1sc(NC(=O)COc2ccc(Br)cc2)nc1C,0%,-6%,-14%,-7,-4,-13%,-1%,6%
O=C(c1ccccn1)N1CCN(S(=O)(=O)c2ccccc2)CC1,-4%,-2%,-11%,5,-2,-1%,2%,4%
Cc1nnc(N2C(=O)C(=O)/C(=C(/O)c3ccc4c(c3)CC(C)O4)C2c2ccccc2F)s1 (stereo unspecified),-1%,-8%,-9%,4,1,-9%,0%,-9%
COc1ccc(CNc2ncnc3c2cnn3-c2ccc(Cl)cc2)cc1,-3%,-4%[57.1 µM],2%,-3,-13,2%,-7%,4%
CCc1cc(C(=O)c2ccc(OC)cc2)c(NC(=O)CN2CCCCC2)s1,-3%,-6%,-28%,-4,1,-2%,8%,-7%

# Arranged by length of the SMILES (rising): some entries from above.
SMILES,Glioma ERSR ind,TrxR1 substrate,USP1 inh,PI4K2A block,LDHA block,Vif-APOBEC3G blk,Vif-A3F inh,IDH1 R132H inh
CC(=O)c1sc(NC(=O)COc2ccc(Br)cc2)nc1C,0%,-6%,-14%,-7,-4,-13%,-1%,6%
COc1ccc(CNc2ncnc3c2cnn3-c2ccc(Cl)cc2)cc1,-3%,-4%[57.1 µM],2%,-3,-13,2%,-7%,4%
Cc1cccc(CNC(=O)c2ccc(Cn3c(=O)c4cccn4c4cccnc43)cc2)c1,-4%,17%,5%,-4,-10,0%,-27%,10%
Cc1nnc(N2C(=O)C(=O)/C(=C(/O)c3ccc4c(c3)CC(C)O4)C2c2ccccc2F)s1 (stereo unspecified),-1%,-8%,-9%,4,1,-9%,0%,-9%

# The list is partial; count on the stated rates, not on these rows.
